Sfp PPTase inh: blocks B. subtilis Sfp PPTase activity; Q9F4F7; 310,000 tested, 3.5% active; Biochemical Sfp PPTase activity, qHTS; Potency, µM, without a hit: max response, negative = inhibition, hits mostly inhibitors; active means well fitted inhibition curve with a large enough effect; inconclusive means small, poorly fitted or top-dose-only effect, or another doubt; inactive means no such curve, though single readings can be large or run the other way;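 further: the enzyme is Sfp with the accession as filed and its product quenches rhodamine fluorescence; potency means the concentration at half of the fitted maximal effect; 0% = enzyme reaction without inhibitor and -100% = no enzyme wells; top concentration of the series not given in the record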
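Reaction rates are the 30-min fluorescence difference (ex 525, em 598 nm) in wells containing 15 nM Sfp, 5 uM rhodamine-CoA and 12.5 uM BHQ-2-YbbR at pH 7.6 with 10 mM MgCl2.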
TRPV1 potentiator: enhances activation of the human vanilloid receptor TRPV1 | AID 540277 | 320,000 tested, 0.02% active | potentiation, % at 8.33 µM | TRPV1-expressing cells, Fluo-8 calcium influx, capsaicin EC20 potentiation; host cell line not named in the record; control for the full effect not named in the record; active means potentiation above 80%; inconclusive means 30% to 80%; inactive means below 30%; further: 0% is about no effect
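Cells expressing TRPV1 were dye-loaded with Fluo-8 and read kinetically: 10 s baseline, 3 min after compound (agonist portion), then 2 min after EC20 capsaicin (allosteric enhancer portion). Calcium-bound dye fluorescence at 480/520 nm.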
TRPML1 blocker: human mucolipin-1 channel inhibition; Q9GZU1; TRPML1-inducible cells, Ca2+ dye fluorescence, FDSS; stronger effect = lower value; inhibition of EC80 agonist-evoked calcium signal; activity change, negative = inhibition, % (test concentration not listed); 390,000 tested, 0.02% active; AID 624415; in the data active means activity change below about -50%; inconclusive means about -30% to -50%; inactive means above about -30%;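 further: stimulus is agonist 54-4 at its EC80 concentration; on the % scale 0 is the no-effect control and ±100 the full control effect; compound concentration not given in the record; the text of the record puts the active cut at -80%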
Target sequence (Q9GZU1 whole entry, looked up): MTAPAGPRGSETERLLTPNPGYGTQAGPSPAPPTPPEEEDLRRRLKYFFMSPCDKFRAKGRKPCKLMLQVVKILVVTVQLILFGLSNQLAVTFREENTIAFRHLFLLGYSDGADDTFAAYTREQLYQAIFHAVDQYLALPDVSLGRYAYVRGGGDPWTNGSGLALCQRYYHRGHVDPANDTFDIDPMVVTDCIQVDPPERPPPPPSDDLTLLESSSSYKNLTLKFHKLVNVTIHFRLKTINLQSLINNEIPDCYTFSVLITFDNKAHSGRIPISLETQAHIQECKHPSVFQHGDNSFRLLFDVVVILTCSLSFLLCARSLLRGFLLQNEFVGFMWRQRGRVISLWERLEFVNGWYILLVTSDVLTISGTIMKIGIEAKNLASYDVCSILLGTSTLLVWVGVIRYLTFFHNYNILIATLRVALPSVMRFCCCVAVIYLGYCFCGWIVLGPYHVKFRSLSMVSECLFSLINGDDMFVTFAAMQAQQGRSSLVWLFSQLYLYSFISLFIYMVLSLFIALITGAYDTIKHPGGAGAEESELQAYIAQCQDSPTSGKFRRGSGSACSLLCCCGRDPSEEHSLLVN
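Tet-induced TRPML1-DL cells loaded with Ca8 no-wash calcium dye were read kinetically on FDSS. Compound addition was followed by EC80 agonist 54-4 (4 uM final); inhibition was read over 110 s.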
PINK1 modulator: modulators of PINK1 expression | Potency, µM (doses to about 76.6 µM), without a hit: at the top dose activation (PINK1 increase), most hits filed as activators | PINK1 immunofluorescence, high-content cytometry, 24 h | 410,000 tested, 0.2% active; active = well fitted activation curve with a large enough effect; inconclusive = small, poorly fitted or top-dose-only effect; inactive = flat fitted curve, though single readings scatter; cell line not stated here;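 further: potency means the concentration at half of the fitted maximal effect; % of control where 0% means no effect; nearly all actives have a fitted effect of over 65% in size; a mitochondrial uncoupler was the plate control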
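Stable cell line treated 24 h with compounds at 5 concentrations (CCCP controls), then fixed and immunostained for PINK1 plus nuclear and cell stains; PINK1 immunofluorescence quantified by laser-scanning microplate cytometry.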
Menin-MLL FL inh: inhibitors of human menin-MLL interaction, wild-type MLL peptide; Fluorescence polarization, fluorescein-MLL peptide displacement from menin; FP activity change, % at 61.4 µM; 290,000 tested, under 10 active; inconclusive = falling polarisation curve, or a change in total fluorescence; inactive = total fluorescence flat and polarisation flat or rising; no compound was filed as active; the % refers to the polarisation; negative = inhibition;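 further: % of control where 0% means no effect; inhibitors lower the polarisation; unlabelled MLL peptide was the positive control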
TRPML1 ag: activates the human TRPML1 channel; Q9GZU1; TRPML1-expressing cells, Ca2+ dye fluorescence, FDSS; host cell line not named in the record; reference of the full effect not given here; activation, % (test concentration not listed); 410,000 tested, 0.12% active; AID 624414; in the data active = activation above about 50%; inconclusive = about 30% to 50%; inactive = below about 30%; further: 0% is about no effect; the text of the record puts the active cut at 80%
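Tetracycline-induced TRPML1-DL cells are seeded and incubated overnight before loading with a no-wash Ca2+ dye and quencher. Agonist activity is taken from the 110 s fluorescence read following compound pin-transfer on an FDSS, before EC80 54-4 challenge.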
ClpP mod: qHTS Assay for Activators of ClpP | ATP-dependent Clp protease proteolytic subunit (Bacillus subtilis (strain 168)), P80244 | purified B. subtilis ClpP, FRET peptide cleavage, 20 min | Potency, µM (doses to about 57.5 µM), for the others: top-dose activity change, negative = active | 340,000 tested, 1.9% active; active = well fitted falling curve with a large enough effect; inconclusive = small, poorly fitted or top-dose-only effect; inactive = no such curve, though single readings can be large or run the other way; further: potency means the concentration at half of the fitted maximal effect; the source files actives as falling curves though it sought activators and does not explain the sign; nearly all actives have a fitted effect of over 65% in size; many hits overshoot -100%
Target sequence (P80244 whole entry, looked up): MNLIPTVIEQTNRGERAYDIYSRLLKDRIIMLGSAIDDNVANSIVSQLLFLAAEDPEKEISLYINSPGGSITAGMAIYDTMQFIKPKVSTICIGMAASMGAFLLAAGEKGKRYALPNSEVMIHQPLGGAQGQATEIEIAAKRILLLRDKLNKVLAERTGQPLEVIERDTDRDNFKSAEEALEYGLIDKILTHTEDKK
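FRET quenching reversal measured ClpP activation: 10 microg/mL B. subtilis ClpP at pH 8 with the FRET-FV decapeptide, read at 430 nm after 320 nm excitation. The 20-min minus 0-min signal was scaled between DMSO/no-enzyme wells and ADEP (5.8 microM final).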
Active calls of the source: *; ? = inconclusive; nt = no result given; [ ] = another dose, or the depositor's remark.

SMILES	Sfp PPTase inh	TRPV1 potentiator	TRPML1 blocker	PINK1 modulator	Menin-MLL FL inh	TRPML1 ag	ClpP mod
CCOc1cccc(CN2CCCC(CNC(=O)c3cccc(OC)c3OC)C2)c1 (configuration not stated)	18%	16	2	0.4%	-1.0	0.0	nt
Cn1c(C(=O)NCCCN2CCOCC2)cc2c(=O)n(C)c3ccccc3c21	-9%	-4	-3	1.0%	2.0	0.6	4.7%
CC(=O)c1sc(N2CCOCC2)nc1-c1ccccc1	-7%	-11	5	-0.7%	-1.0	-0.2	nt
COc1ccc(N=C2SC(CC(=O)Nc3ccccc3OC)C(=O)N2Cc2ccco2)cc1 (configuration not stated)	?	5	14	1.0%	13	1.4	-2.2%
CCc1ccc(OCC(O)CN2CCN(c3ccccn3)CC2)cc1 (configuration not stated)	-3%	-17	2	0.6%	-1.2	1.3	-1.1%
COc1ccc(NC(=O)N(C)C[C@H]2Oc3ccc(NC(=O)Cc4ccccc4)cc3C(=O)N([C@H](C)CO)C[C@@H]2C)cc1	nt	nt	-2	0.3%	nt	0.0	-2.6%
CC(C)CCn1cnc2c(cnn2-c2ccc(F)cc2)c1=O	-1%	-7	86	-1.3%	-0.2	0.0	-7.7%
Cc1ccc(S(=O)(=O)N2CC(C)C(=O)CC2C)cc1 (configuration not stated)	-1%	5	-2	-2.1%	2.1	0.8	nt
CCOC(=O)C(NCc1ccccc1OC)(NC(C)=O)C(F)(F)F (configuration not stated)	3%	-1	23	0.1%	1.0	0.3	-0.5%
CCOC(=O)[C@@H]1[C@H]2COc3cc(OC)ccc3[C@H]2N2C(=O)N(c3ccc(C)cc3)C(=O)[C@]12C	nt	nt	26	-0.8%	nt	0.7	-2.5%
COc1ccc(S(=O)(=O)NCC2CCCN(C(=O)c3cccnc3C)C2)cc1 (configuration not stated)	0%	5	-12	-0.4%	-4.4	-0.3	-2.6%
COc1ccc(S(=O)(=O)Nc2ccc3c(c2)C(=O)N([C@H](C)CO)C[C@H](C)[C@@H](CN(C)S(=O)(=O)c2c(C)noc2C)O3)cc1	nt	nt	2	1.0%	nt	0.1	0.1%
CC1=NN(C(N)=S)C(=O)C1N=Nc1c(Br)cc(Br)cc1Br (configuration not stated)	-17%	-2	-1	0.3%	-6.5	0.5	nt
O=C(Nc1ccc(OCC(=O)N2CCC(Cc3ccccc3)CC2)cc1)c1ccco1	89µM*	-6	26	-4.9%	?	0.6	1.0%
CCN(CC(=O)NCc1cccs1)c1nnnn1-c1ccccc1	11%	-3	0	-3.5%	-1.1	-0.5	0.2%
Fc1ccccc1Cc1nnc2n1N=C(c1ccc(Cl)cc1)CS2	9%	-16	-1	0.9%	-1.1	-0.9	1.5%
O/N=C1\CCSc2ccc(F)cc21	-6%	nt	21	1.4%	0.5	-1.2	-13%
CCCN(C(=O)CSc1ncccn1)C1CCS(=O)(=O)C1 (configuration not stated)	nt	nt	-15	-0.6%	nt	0.1	-0.5%
O=C(NCCCN1CCOCC1)C1CCCN(S(=O)(=O)N2CCCCC2)C1 (configuration not stated)	16%	4	-1	-0.2%	0.6	-0.4	1.1%
COc1cc(C(=O)NC2CCN(C)CC2)ccc1Nc1ncc2c(n1)N(C1CCCCC1)CCC(=O)N2C	nt	nt	-7	?	nt	1.1	-15%
COc1ccc(Cl)cc1S(=O)(=O)NCCCn1ccnc1	-1%	2	24	-1.3%	-3.6	0.9	0.3%
O=C(c1cccs1)N(Cc1cccc(F)c1)C1CCS(=O)(=O)C1 (configuration not stated)	17%	3	-7	0.9%	nt	-0.2	-0.2%
Cc1nnc(NC(=O)CSc2nnc(NC(=O)C(C)(C)C)s2)s1	25%	17	6	-1.4%	-3.2	0.7	-0.5%
CCN(CC)CC(=O)Nc1c(C#N)cnn1-c1ccccc1	-4%	-5	18	0.0%	-0.2	0.4	nt
Cc1ccc(C)c(OCCCn2c(-c3ccc(Cl)cc3)nc3ccccc3c2=O)c1	nt	nt	14	3.1%	nt	-0.6	-5.1%
COc1cc(C(=O)NCCS(=O)(=O)N2CCN(c3ccccc3)CC2)cc(OC)c1OC	nt	nt	-10	-0.3%	nt	1.4	-4.5%
O=C(NC(=S)N1CCN(c2ccc([N+](=O)[O-])cc2)CC1)c1ccco1	21%	3	17	0.0%	2.4	-0.1	1.3%
O=C1CSC(=Nc2ccc(Cl)cc2)N1Cc1cccnc1	-2%	nt	-7	-0.1%	5.3	0.9	nt
COc1ccc(-c2cn3c(n2)sc2cc(C(=O)Nc4cc(Cl)ccc4C)ccc23)cc1	nt	nt	-4	1.8%	nt	0.6	?
Fc1ccc(CNc2nc(-c3ccc(Cl)cc3)cc(C(F)(F)F)n2)cc1	nt	nt	41	40µM*	nt	1.5	4.4%
CC(=O)c1cc(F)c(N2CCN(C(=O)c3ccco3)CC2)cc1C	?	-36	8	-0.5%	0.3	1.0	-10%
C=C(C)CNC(=S)NN=C1c2ccccc2-c2ccccc21	17%	5	-1	3.3%	6.9	1.0	nt
Cc1ccc(NC(=O)C2CCN(S(=O)(=O)c3cccc4nonc34)CC2)nc1	16%	-15	-3	1.2%	1.1	0.0	-1.9%
O=C(N/N=C/c1ccsc1)c1ccc2c(c1)OCO2	nt	-20	7	2.0%	nt	0.1	0.6%
CCOc1ccc2[nH]c(=O)c(CN(Cc3cccnc3)C(=O)Nc3ccccc3OC)cc2c1	20%	1	1	-2.2%	3.2	-0.7	?
O=C(NCCN1C(=O)S/C(=C\c2ccccc2)C1=O)c1cc(S(=O)(=O)N2CCOCC2)c(Cl)cc1Cl	-7%	3	-11	4.6%	7.7	1.8	-2.6%
O=C1C(Nc2cccc(O)c2)=C(N2CCCCC2)C(=O)c2ccccc21	32µM*	-3	-8	0.5%[38.3 µM]	5.0	0.6	3.6%
Nc1nc(SCc2ccc(Cl)cc2)[nH]c(=O)c1-c1ccccc1	14%	19	80	1.6%	-4.1	-0.1	-4.1%
COc1ccc2c(c1)c1c(c(=O)n(-c3ccccc3C)c(=O)n1CC(N)=O)n2C	nt	nt	2	1.2%	nt	-0.1	3.8%
CCc1ccc(C(=O)COC(=O)c2ccco2)cc1	6%	-11	-4	-0.7%	nt	0.4	0.9%
CC(C)(C)CC(=O)Nc1cc(S(=O)(=O)N2CCOCC2)ccc1N1CCCC1	?	-7	32	5.7%	8.1	1.5	nt
COC(=O)c1c(NC(=S)Nc2cc(OC)c(Cl)cc2OC)sc2c1CCCCC2	?	5	16	0.6%	0.6	-1.3	-2.0%
Cc1ccc([N+](=O)[O-])cc1NC(=O)CN(C1CCCCC1)S(=O)(=O)c1ccc(Cl)cc1	-1%	9	64	0.8%	0.7	-1.0	-3.1%
O=C(Nc1cccc(-c2cn3ccccc3n2)c1)c1ccccc1	10%	10	-2	-0.8%	-4.9	0.4	-3.4%
Cc1ccc(NC(=O)CCC(=O)N/N=C/c2coc3ccc(F)cc3c2=O)cc1	nt	nt	-15	0.1%	nt	-0.4	nt
COc1ccc(/C=C/C(=O)Nc2ccc(Cl)c(Cl)c2)cc1	nt	nt	-2	6.5%	nt	0.6	160%
CCc1noc(C)c1C(=O)OCC(=O)NC(=O)c1ccccc1	18%	-14	11	-0.8%	-0.9	-0.4	0.6%
O=C(CSc1nnc(-c2ccncc2)n1C1CCCCC1)Nc1ccccc1	12%	1	-12	-0.7%	-6.7	-1.2	-0.1%
COc1ccccc1NC(=O)c1ccc(NC(=O)COC(=O)CCC2CCCC2)cc1	27%	7	-12	0.4%	-4.4	1.8	-2.7%
O=C1COc2ccc(C(=O)CSc3nnc(Cc4cccs4)n3-c3ccc(Cl)cc3)cc2N1	-18%	-7	1	-5.8%[38.3 µM]	2.2	0.9	-0.2%
Cn1c(SCC(=O)Nc2ccc(Cl)cc2F)nnc1-c1ccco1	10%	-8	17	0.0%	-3.1	2.0	nt
COC(=O)CN1C(=O)COc2ccc(S(=O)(=O)N3CCCCC3)cc21	nt	nt	2	-0.5%	nt	-0.1	-0.6%
CCC(=O)Nc1nc(C)c(-c2csc(Nc3cccc(C(=O)O)c3)n2)s1	20µM*	11	-14	1.0%	8.8	0.1	1.5%
COc1cc(/C=C(\C#N)c2nc3ccccc3[nH]2)c([N+](=O)[O-])cc1OCc1ccccc1	9%	-1	18	1.2%	7.0	0.0	-1.6%
CC(=O)c1ccc(NC(=O)c2cccc(S(=O)(=O)N3CCN(C)CC3)c2)cc1	19%	-1	-18	2.1%	3.4	-0.3	nt
COc1cccc(NC(=O)c2oc3ccccc3c2NC(=O)C(C)(C)C)c1	-5%	-33	14	?	0.3	-0.2	?
COc1ccccc1NC(=O)c1ccc(NC(=O)COC(=O)CC(NC(=O)c2ccccc2Cl)c2ccccc2)cc1 (configuration not stated)	2%	6	8	5.4%	-2.2	-0.9	nt
NC(=O)c1noc(C(=O)N(CC(=O)NC2CCCC2)Cc2ccc3c(c2)OCO3)c1N	20%	-3	4	-1.1%	4.9	-0.9	-4.6%
CCCCN(CC)CCCNC(=O)CC1Oc2ccccc2NC1=O (configuration not stated)	23%	23	-4	4.6%[38.3 µM]	2.0	0.3	-5.3%
O=C(NC1CCCCC1)C(c1ccc2ncccc2c1)N(Cc1ccc(F)cc1)C(=O)c1cccs1 (configuration not stated)	19%	-6	16	nt	0.1	4.3	-0.7%

A different layout for 2 compounds above:
Results follow in this order: Sfp PPTase inh, TRPV1 potentiator, TRPML1 blocker, PINK1 modulator, Menin-MLL FL inh, TRPML1 ag, ClpP mod
COc1cccc(NC(=O)c2oc3ccccc3c2NC(=O)C(C)(C)C)c1
    -5%, -33, 14, ?, 0.3, -0.2, ?
O=C(NC1CCCCC1)C(c1ccc2ncccc2c1)N(Cc1ccc(F)cc1)C(=O)c1cccs1 (configuration not stated)
    19%, -6, 16, nt, 0.1, 4.3, -0.7%

(further entries)
SMILES	Sfp PPTase inh	TRPV1 potentiator	TRPML1 blocker	PINK1 modulator	Menin-MLL FL inh	TRPML1 ag	ClpP mod
CC(=O)c1c(-c2ccccc2)c2cc(Cl)ccc2n(C)c1=O	17%	7	-7	-1.7%	4.5	2.7	nt
COc1cccc(-c2nc3c(C#N)c[nH]n3c2NC2CCCCC2)c1OC	nt	nt	43	-0.7%	nt	1.7	0.1%
CCOc1ccc(C(=O)Nc2cc(-c3cn4cccnc4n3)ccc2C)cc1OCC	nt	nt	2	1.1%	nt	-0.5	4.6%
CCn1c(CNS(=O)(=O)c2ccc(Br)cc2)nnc1SC	15%	-10	1	0.2%	nt	0.7	-3.9%
